Rce1 inhib: blocks yeast Ras-converting enzyme | Q03530 | yeast membranes, quenched prenylated peptide cleavage fluorescence | calls only | 0.27% of 290,000 active | AID 2563;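 active = fall in fluorescence gain of 50% or more versus controls, with final raw signal at or below 3038400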;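 also: plate controls were neutral control wells for no effect and wells lacking membranes for full effect; tested at 10 µM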
CSC inhib: cancer stem cell inhibition; inhibition, % at 7.5 µM; cancer stem cell-like cells viability, luminescence; 1.1% of 300,000 active;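 active = mean at 75% or more and at least half the replicates too; tested in HMLE shEcad cells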;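 also: 0% = median of negative and 100% = median of positive control wells; the first replicate is given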
eIF4H FP inh: inhibitors of RNA binding by human eIF4H. eIF4H fluorescence polarization binding assay. inhibition, % at 35 µM. 0.94% of 290,000 active;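 active = 50% or more with normal probe brightness, or confirmed in later tests; about a fifth of its hits are not listed in these tables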;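 also: calls also rest on retests at 20 µM and on dose response follow-up; 0% = protein and probe with vehicle and 100% = probe without protein; strong numbers were not always called active; many hits fall short of the cut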
Env fusion inh: inhibitors of HIV Env-mediated cell fusion; HeLa-JRFL Env/CEM21 cell fusion, luciferase; inhibition, % at 12.3 µM; 1.1% of 360,000 active;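 active = mean replicate inhibition score of at least 50 and every replicate individually at or above 50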;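 also: 0% = plate neutral controls and 100% = maraviroc near 300 nM; one replicate is shown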
MT1-MMP act inh: inhibitors of human MT1-MMP activation; 0.061% of 360,000 active; HT1080 RFP-PRO-GFP cells, GFP/RFP ratio fluorescence, overnight; percent of plate control window, DMSO zero; AID 651647; GFP/RFP ratio change, % at 20 µM; P50281;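 active = GFP/RFP ratio change of at least 30% with cell ATP level not reduced by more than half and red fluorescence within 50% of control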; also: strong numbers were not always called active
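Assay system: HT1080 cells carrying an RFP-PRO-GFP reporter | Dosing: Single dose of 20 µM compound, 1% DMSO final | Incubation: Cells overnight before dosing, compound overnight, 37 °C, 5% CO2 | Evaluation: GFP/RFP fluorescence ratio | Control set: DMSO and RFP-L50D-GFP cell wells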
Yeast UUG start: alters start codon recognition fidelity in yeast | S. cerevisiae UUG-firefly luciferase reporter, luminescence/redox ratio | activity score, % at 18.7 µM | 0.13% of 350,000 active | AID 602363;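 active = replicate mean at a twofold rise or more, about +100% in these data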;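 also: firefly luciferase made from a UUG start codon reports start codon fidelity; reporter light over untreated wells divided by growth signal over untreated wells; some hits fall short of that in this replicate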
PABP polyA inh: blocks human PABP binding to poly(A) RNA; inhibition, % at 35 µM; fluorescence polarization; P11940; 1% of 290,000 active; AID 2014;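 active = 50% or more with normal probe brightness, or confirmed in later tests; about a fifth of its hits are not listed in these tables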;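 also: calls also rest on retests at 20 µM and on dose response follow-up; controls were probe without protein and protein plus probe with vehicle; some compounds called inactive have numbers as strong as hits; many hits fall short of the cut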
Target sequence (P11940 whole entry, looked up): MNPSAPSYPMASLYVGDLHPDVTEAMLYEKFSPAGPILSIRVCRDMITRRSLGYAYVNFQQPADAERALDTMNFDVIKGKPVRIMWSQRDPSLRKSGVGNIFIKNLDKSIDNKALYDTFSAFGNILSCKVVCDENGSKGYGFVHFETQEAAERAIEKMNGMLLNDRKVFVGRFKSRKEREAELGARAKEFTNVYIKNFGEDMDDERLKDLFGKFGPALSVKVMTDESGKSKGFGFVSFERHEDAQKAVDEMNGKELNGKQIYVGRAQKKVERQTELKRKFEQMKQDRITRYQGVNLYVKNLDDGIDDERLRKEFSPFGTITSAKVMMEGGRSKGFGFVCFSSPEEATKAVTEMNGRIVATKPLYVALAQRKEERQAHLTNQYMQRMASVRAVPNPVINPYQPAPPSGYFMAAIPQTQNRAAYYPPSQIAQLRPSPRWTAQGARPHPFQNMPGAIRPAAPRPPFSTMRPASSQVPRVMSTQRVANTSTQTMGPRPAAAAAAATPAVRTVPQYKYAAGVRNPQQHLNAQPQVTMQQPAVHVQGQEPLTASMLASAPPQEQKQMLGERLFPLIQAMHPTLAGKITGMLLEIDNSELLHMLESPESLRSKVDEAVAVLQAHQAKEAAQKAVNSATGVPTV
eIF4H FP inh retest: second read-out of eIF4H FP inh, no call of its own (marks repeat the call); inhibition, %; compound at 20 µM; confirmation average;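 mean of two retest wells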
PABP polyA inh retest: second read-out of PABP polyA inh, no call of its own (marks repeat the call); inhibition, %; compound at 20 µM; confirmation repeats;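 mean of two retest wells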
MT1-MMP act inh RFP: second read-out of MT1-MMP act inh, no call of its own (marks repeat the call); RFP signal change, %; measured here: RFP expression control read;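 0 = vehicle wells; hits needed this value within 50% of zero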
* marks the source's active call; other numbers are inactive results; i = inactive; nt = not tested or not shown.

SMILES | Rce1 inhib | CSC inhib | eIF4H FP inh | Env fusion inh | MT1-MMP act inh | MT1-MMP act inh RFP | Yeast UUG start | PABP polyA inh | others
COc1ccc(NS(=O)(=O)c2cc(C(=O)N3CCN(C(C)=O)CC3)ccc2Cl)cc1 | nt | -5 | 12 | 13 | 1 | 1 | nt | -2
CC1(C)CC(=O)C(C=Nc2ccc(NC3=C(C#N)C(=O)CC(C)(C)C3)cc2)=C(O)C1 | i | -2 | 6 | 15 | 7 | 9 | -7 | 5
COc1ccc(-c2nc(NC(=O)c3ccccc3)sc2-c2ccc([N+](=O)[O-])cc2)cc1 | i | 27 | 21 | 16 | -5 | -6 | -11 | 26
[O-]/C(=C(\C(=S)Nc1ccc(Cl)cc1)[n+]1ccccc1)c1ccc(OC(F)F)cc1 | i | nt | -5 | -6 | -5 | 3 | nt | -3
CCC(C(=O)Nc1cc(C(=O)Nc2cc(C)ccn2)ccc1Cl)c1ccccc1 (centres undefined) | i | -7 | 5 | nt | -6 | -4 | nt | -9
CCN(Cc1ccccc1)S(=O)(=O)CCNC(=O)c1ccccc1 | i | -7 | nt | nt | -1 | 3 | 0 | nt
CCc1c(C)[nH]c(C(=O)OCc2ccccc2)c1C | i | nt | -1 | -21 | nt | nt | -9 | -9
CCC/C=C1/CCCOC(C(=O)NCc2cc(C)n(C)n2)(C(F)(F)F)C1 (centres undefined) | i | 6 | nt | 10 | -3 | 4 | 8 | nt
O=C(O)CCCn1cc(NC(=O)c2cc(F)c(F)cc2Cl)cn1 | i | -6 | 8 | 1 | 6 | 3 | nt | 8
CC1CCCCC1NC(=O)COC(=O)CNC(=O)c1cccc(F)c1 (centres undefined) | i | -7 | -5 | -5 | 1 | 3 | nt | 5
CSCCC1C(=O)OC2(C)CC(C)(C)NC(=S)N12 (centres undefined) | i | -3 | 1 | -43 | 4 | 3 | -10 | -8
O=C(N/N=C/c1cc([N+](=O)[O-])ccc1Cl)c1cc(-c2ccccc2)nc2ccccc12 | i | -20 | 7 | -11 | 5 | 0 | nt | 7
Cc1nc2ncnn2c(N2CCN(C(c3ccccc3)c3ccccc3)CC2)c1C | i | -6 | -6 | -76 | -9 | -5 | -4 | 0
CCOC(=O)C1=C(C)NC2=C(C(=O)CC(c3ccc(OC)c(OC)c3)C2)C1c1ccc(C)o1 (centres undefined) | nt | 8 | -9 | nt | 5 | 4 | 0 | -3
O=C(NC(Cc1ccccc1)C(=O)O)C1CCCCC1 (centres undefined) | i | -4 | 0 | 12 | 12 | 10 | 13 | -3
CC(=O)Nc1ccc(S(=O)(=O)N2CCN(C(=O)c3ncoc3-c3ccccc3C)CC2)cc1 | i | -2 | 0 | 1 | 4 | -7 | -11 | -7
CC(C)CCN1C(=O)C2(OCCCO2)c2cc(Cl)ccc21 | i | 2 | -10 | -9 | -1 | -1 | -1 | 5
Cn1c(=O)c(C(=O)COC(=O)c2cc(-c3ccco3)nc3ccccc23)c(N)n(Cc2ccccc2)c1=O | i | 6 | 68 | nt | nt | nt | nt | -6 | eIF4H FP inh retest=22;PABP polyA inh retest=25
CCc1ccc(CNC(=O)Cn2nc(-c3ccccc3)ccc2=O)cc1 | i | -11 | -5 | 16 | -1 | -6 | nt | 6
CCOC(=O)C1(CC)NC(c2ccco2)C2C(=O)N(c3ccc(C)cc3)C(=O)C21 (centres undefined) | i | 1 | 4 | -41 | -5 | -4 | nt | 12
O=C(CNCc1cccnc1)Nc1cc(C(F)(F)F)ccc1N1CCOCC1 | i | -1 | -6 | -24 | -2 | -1 | -20 | 5
Cc1ccc2cccc(NS(=O)(=O)c3ccccc3)c2n1 | i | -5 | 23 | -29 | nt | nt | nt | 6
O=C1CC(c2ccc(Br)cc2)NC(c2ccc(Br)cc2)C1c1ccccc1 (centres undefined) | i | -24 | 3 | nt | nt | nt | nt | -1
Cc1ccc(NC(=O)CCSc2nnc(C)o2)cc1 | nt | -12 | -1 | -6 | 0 | -1 | -12 | 3
O=C(NC1CCCC1)C1CCCN(S(=O)(=O)c2cnc[nH]2)C1 (centres undefined) | i | -5 | 0 | -23 | 0 | 4 | -10 | -1
CSc1ncccc1C(=O)OCC(=O)c1ccc[nH]1 | nt | -3 | nt | nt | -2 | 2 | -19 | nt
CCc1ccc(C(=O)NNC(=O)CCC2CCCCC2)cc1 | i | -13 | -9 | -5 | 2 | 5 | -9 | -13
CCOC(=O)C1CCN(Cc2cnc(NC(=O)OC)s2)CC1 | i | -9 | 9 | -41 | -3 | 3 | -11 | 8
COc1cccc(NC(=O)c2ccc(NC(=O)C3CC(=O)OC34CCCCC4)cc2)c1 (centres undefined) | i | nt | 2 | 9 | -1 | -5 | 5 | 7
CC(=O)NC(C)c1cc(Cl)c2ccccc2c1O (centres undefined) | nt | 13 | nt | -7 | -7 | 6 | -12 | nt
Cn1cc(Cl)c(C(=O)OCC(=O)c2ccccc2)n1 | i | 15 | -2 | 4 | 3 | 7 | -12 | 4
CCc1ccccc1NC(=O)C1CC(c2ccc(OC)cc2)=NO1 (centres undefined) | i | 17 | 6 | 9 | -12 | -5 | 6 | 0
COC(=O)c1c(-c2cccnc2)csc1NC(=O)c1cc(C)on1 | i | -8 | 1 | nt | -49 | 0 | -12 | -1
Cc1cc(NC(=O)CSc2ccc(-c3nc4cc(C)c(C)cc4[nH]3)cn2)no1 | i | 11 | -3 | nt | -1 | 0 | -14 | -10
CCOc1ccc(CN(C)CC(=O)Nc2ccc([N+](=O)[O-])cc2Cl)cc1 | i | 22 | -3 | 3 | -3 | -6 | nt | 9
CCc1nnc(NC(=O)CN2CCN(C(=O)c3ccccc3)CC2)s1 | nt | -7 | 2 | 6 | -1 | -2 | nt | 5
COc1ccc(-c2nn(-c3ccccc3)cc2/C=C/C(=O)N(C)CC(=O)Nc2cccc(F)c2)cc1OC | nt | nt | nt | 22 | -5 | -8 | 1 | nt
COc1ccc(NC(=O)CN2CCN(CC(=O)Nc3ccccc3OC)CC2)c(OC)c1 | i | nt | -3 | 11 | 0 | -11 | -16 | 2
O=C(Cc1noc2ccccc12)Nc1ccc2ccccc2c1 | i | 12 | 1 | -21 | 2 | 5 | -7 | -3
COc1ccc(CNC(=O)Nc2cccc3ccccc23)cc1 | i | -8 | -1 | -14 | 5 | 5 | -16 | 2
COc1cc(SC)ccc1C(=O)OCC(=O)NC1CCCC1 | i | 8 | 4 | -10 | 1 | 4 | -14 | 3
CN(C)CC(O)CN1C(=O)N(CN2C(=O)N(CC(O)CN(C)C)C(=O)C2(C)C)C(C)(C)C1=O (centres undefined) | i | -12 | 4 | 2 | -2 | 1 | nt | 2
CCOc1cc(C(=O)NCc2ccc(-c3nc4ccccc4o3)cc2)cc(OCC)c1OCC | i | 41 | -3 | -45 | 5 | 0 | -15 | -1
O=C(Nc1ccc(F)cc1)Nc1nnc([C@H]2C[C@H](O)[C@@H](CO)O2)s1 | nt | nt | nt | -130 | -1 | 6 | -8 | nt
O=C(CSc1ncn[nH]1)Nc1ccc2c(c1)OCCO2 | i | 1 | -1 | -16 | 0 | 1 | -13 | 1
O=C(Cn1c(-c2cncs2)nc2ccccc21)NCc1ccccc1 | i | -9 | 0 | nt | 4 | 4 | 3 | -6
O=C(Nc1ncc2c(n1)CC(c1ccco1)CC2=O)c1ccc(Cl)cc1 (centres undefined) | nt | 1 | 84* | nt | 0 | 3 | -12 | 66*
CC(C)=CCN1CCN(Cc2ccc(N3CCNC3=O)cc2)CC1CCO (centres undefined) | i | -6 | -2 | 1 | -1 | 0 | 3 | -11
O=C(NC(=S)N1CCCCC1c1cccnc1)c1ccc(Br)cc1 (centres undefined) | i | 1 | -17 | 5 | nt | nt | -18 | 5
CCSc1nnc(NC(=O)c2cc(OC)c(OC)c(OC)c2)s1 | nt | -8 | -3 | -3 | 5 | 2 | nt | -1
CC(=O)c1ccc(S(=O)(=O)NC2CCCCCCC2)cc1 | i | -5 | 2 | 4 | 5 | -11 | 0 | 20
CC(C)CC(NC(N)=O)C(=O)OCC(=O)NC(=O)NC1CCCC1 (centres undefined) | i | -5 | -7 | -17 | 5 | 2 | -11 | -6
CCOC(=O)N1CCN(C(=O)C(=O)Nc2ccc3nc4n(c(=O)c3c2)CCCCC4)CC1 | i | -4 | -15 | -8 | 0 | 0 | 5 | -2
COC(=O)C(C(=O)OC)C(C)C(C(=O)OC)C(=O)OC | i | 6 | -4 | nt | 0 | 7 | 1 | -4
COc1ccc(-c2ccncc2)cc1OC | i | -3 | nt | -83 | 1 | 3 | 1 | nt
COC(=O)c1nn(-c2ccccc2)ccc1=O | i | -1 | -12 | nt | 0 | 5 | nt | 5
CCN(Cc1ccccc1)C(=O)CCS(=O)(=O)c1cc2c(cc1Cl)NC(=O)CO2 | i | -13 | -22 | -22 | -1 | 1 | -15 | -9
O=C(OCc1ccccc1)c1cccc(-c2nnc(-c3ccccc3)o2)c1 | i | 29 | -7 | -50 | -3 | -3 | 5 | 3
O=C(c1ccco1)N1CCCSC1=Nc1ccccc1 | i | -8 | -1 | -49 | 6 | 3 | -22 | 2
COc1cccc(NC(=O)Nc2cc(C)ccc2OC)c1 | i | -4 | 2 | -6 | -3 | -2 | nt | -8

A draw from above in order of molar mass, rising:
SMILES | Rce1 inhib | CSC inhib | eIF4H FP inh | Env fusion inh | MT1-MMP act inh | MT1-MMP act inh RFP | Yeast UUG start | PABP polyA inh | others
COc1ccc(-c2ccncc2)cc1OC | i | -3 | nt | -83 | 1 | 3 | 1 | nt
COC(=O)C(C(=O)OC)C(C)C(C(=O)OC)C(=O)OC | i | 6 | -4 | nt | 0 | 7 | 1 | -4
O=C(NC(=S)N1CCCCC1c1cccnc1)c1ccc(Br)cc1 (centres undefined) | i | 1 | -17 | 5 | nt | nt | -18 | 5

(continued)
SMILES | Rce1 inhib | CSC inhib | eIF4H FP inh | Env fusion inh | MT1-MMP act inh | MT1-MMP act inh RFP | Yeast UUG start | PABP polyA inh | others
O=C(CCn1c(=O)c2cccn2c2cccnc21)NCCCN1CCN(c2ccc(F)cc2)CC1 | nt | nt | nt | -7 | 0 | -1 | -1 | nt
O=C(Cn1ncc2c([nH]c3ccccc32)c1=O)N1CCN(c2ccccc2F)CC1 | i | 0 | -2 | 1 | 4 | 3 | -12 | -5
Cn1c(-c2ccc3ccccc3n2)nc2cnccc21 | i | -1 | 10 | nt | -5 | -5 | 24 | 6
CCc1nnc(NC(=O)c2ccc(-c3ccccc3Cl)o2)s1 | i | 4 | -4 | -109 | 8 | -7 | -13 | -17
CC(C)NC(=O)Nc1ccc2c(c1)C(=O)N([C@H](C)CO)C[C@H](C)[C@@H](CN(C)C(=O)Nc1ccc3c(c1)OCO3)O2 | nt | nt | nt | -3 | 3 | 5 | -1 | nt
CCOC(=O)N1CCN(S(=O)(=O)c2cc(Cl)ccc2Cl)CC1 | i | -13 | 5 | nt | 4 | 1 | -1 | 4
O=C(CNC(=O)c1cccs1)NCC(=O)OCC(=O)c1ccccc1 | i | nt | 0 | -4 | -3 | -1 | -10 | 4
CCn1c(SCC(=O)Nc2sc(C)c(C)c2C#N)nnc1C1CC1 | i | nt | 13 | -8 | 6 | 2 | -9 | 5
COc1ccc(CNS(=O)(=O)c2ccc(-c3cc(C)no3)cc2)cc1 | i | -18 | 8 | 12 | 3 | 2 | -19 | -8
Cc1ccc(/C=N/NC(=O)c2nnn(-c3nonc3N)c2CSc2ccccc2)o1 | i | -13 | -11 | 0 | -1 | -3 | -11 | -6
CCN(CC)C(=O)Cn1cc(C(=O)C(=O)NCCc2ccccc2)c2ccccc21 | i | 0 | 2 | 4 | -1 | -2 | -16 | 1
O=C(NCCN1C(=O)S/C(=C\c2cccnc2)C1=O)c1ccc([N+](=O)[O-])s1 | i | -9 | nt | 4 | 3 | -4 | 2 | nt
COc1ccc(NC(=O)N2CCCC2C(=O)Nc2ccc(C)cc2)cc1 (centres undefined) | i | 4 | -15 | -61 | -7 | 0 | nt | 0

Bioassay records: PubChem, several laboratories
